# Mtb hypoxia inh = PubChem AID 1159583 | 0.1% of 300,000 active | fluorescence inhibition, % (test concentration not listed) | M. tuberculosis hypoxia-regulated fluorescent reporter, fluorescence;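 active = 35 to 45% if threefold the growth effect, above 45% if 1.5-fold the growth effect; inactive = the rest, general growth blockers included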;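 note: wells of about 50 µL received 100 nL stock; 0% = vehicle wells and 100% = reference inhibitor wells; whole bacteria with a GFP reporter of the hypoxia response; strong numbers were not always called active; many hits fall short of the cut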
# Autofluor counter = counter-screen for toxin protease inhibitors: compound fluorescence | compound autofluorescence counterscreen, microsphere flow cytometry; hits give high values | fluorescence intensity (concentration not given with the values) | 3.1% of 360,000 active | AID 624483;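 active = at least 3 SD above the mean of all compounds, about 16000 in these data; inconclusive = too few beads counted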;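 note: 100 nL of 1 mM stock went into each well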
# ugtP null kill = growth inhibition of ugtP-null S. aureus, primary screen, RN4220 ugtP deletion, OD600; 16 h; some inactives read as strong as hits; growth inhibition, % (no concentration beside the values); 0.54% of 330,000 active; AID 1259309, 2017;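 active = z-score under -3 and OD600 up to 0.15 on both plates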;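 note: plate controls were untreated wells for no effect and antibiotic for full effect; wells of about 80 µL received 100 nL stock; the first replicate is given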
# PrP 5UTR inh = inhibition of PrP 5' UTR reporter expression; cell-based PrP 5' UTR mRNA reporter, plate reader; inhibition, % (no concentration beside the values); 0.35% of 340,000 active; AID 488862, 2010;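 active = every replicate at 50% or more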;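 note: 0 = median of the neutral control wells; tested in H4 reporter cells; numbers are from one replicate; inactives centre near -14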
# BJeLR viability = MLPCN primary cell-based screen for lethality selective to Ras in HRASV12 cells. BJeLR (HRASV12) viability, CellTiter-Glo ATP luminescence, 48 h; reference of the scale not given here. inhibition, % (no concentration beside the values). 0.17% of 300,000 active. AID 1554, 2009;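 active = replicate mean above 50%; inconclusive = above 50% but judged a plate artefact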;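 note: 50 nL library stock added to about 25 µL; numbers are from one replicate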
# Sa RN4220 lethal = growth inhibition of S. aureus RN4220, primary screen, OD600. 16 h. inhibition, % (no concentration beside the values). 0.33% of 330,000 active. AID 1259311, 2017;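 active = z-score of -3 or lower and OD600 up to 0.18 on both plates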;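 note: plate controls were untreated cells for no effect and reference antibiotic for full effect; stock transfer was 100 nL into about 80 µL; one replicate is shown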
# Mtb hypoxia inh growth = recorded beside Mtb hypoxia inh, whose call it bears; growth inhibition, %; measured here: M. tuberculosis growth (absorbance);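 0% = vehicle and 100% = reference antibiotic; read after six days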
# An asterisk follows results filed as active; ? = inconclusive; . = not tested or not shown; & = joins results of further samples.
SMILES,Mtb hypoxia inh,Mtb hypoxia inh growth,Autofluor counter,ugtP null kill,PrP 5UTR inh,BJeLR viability,Sa RN4220 lethal
O=C(CCc1ccc(S(=O)(=O)N2CCOCC2)cc1)N/N=C/c1ccc(O)c(O)c1O,.,.,1887,.,-9.4,-1.4,.
COC(=O)/C=C1\N/C(=N/c2nc(C)c3cc(OC)ccc3n2)NC1=O,13.3,11.3,3122,7.6,-26.2,2.9,3.0
O=C(COC(=O)Cc1ccccc1)NNC(=O)c1ccc([N+](=O)[O-])cc1,-4.6,-2.2,2846,-1.6,-18.3,.,0.6
O=C(COC(=O)c1ccccc1-n1cnnn1)c1ccccc1,8.0,6.4,4875,1.7,-17.4,-2.2,4.7
O=C(CCSc1ccc(F)cc1)NNC(=O)c1ccccc1Cl,4.5,0.1,3298,3.3,-15.5,.,1.9
Cc1cccn2cc(CCNS(=O)(=O)c3cccs3)nc12,8.0,-6.4,3439,-5.9,-7.8,-2.6,7.3
COc1cc(NC(=O)C2CCC(CNc3c(N4CCCCC4)c(=O)c3=O)CC2)cc(OC)c1 (configuration not stated),1.5,1.0,5320,13.7,-14.4,-8.2,6.3
O=C(COC(=O)Cc1ccc(F)cc1)NCc1ccco1,-7.4,-1.4,2051,11.5,-6.6,1.4,0.0
O=C(CC1C(=O)Nc2ccccc2N1CC(=O)N1CCCC1)Nc1ccc(Br)cc1 (configuration not stated),7.3,9.0,3415,-3.4,-14.4,.,2.4
CC(C(=O)NC1C(=O)N2C(C(=O)O)=C(CSc3nnnn3C)CSC12)n1cc(Br)cn1 (configuration not stated),.,.,4584,99.8*,-12.5,-9.4,100.2*
CCCCn1c(-c2c(Cl)c(C)nn2C)n[nH]c1=S,12.1,10.7,4760,1.5,-16.2,-11.3,4.2
COc1ccc(CN(C)C(=O)c2ccc3c(=O)n4c(nc3c2)CCC4)c(OC)c1,0.8,3.9,6316,-3.1,-2.2,-4.9,-1.3
Cc1cc(-n2nc3ccccc3n2)c(O)c([N+](=O)[O-])c1,15.8,7.5,4335,12.8,-43.4,1.6,3.9
CC(c1nnc(SCC(=O)Nc2cc([N+](=O)[O-])ccc2F)n1Cc1ccccc1)N(C)C (configuration not stated),-4.7,-0.3,3559,2.0,-24.9,3.2,3.9
Cc1cc(=O)oc2cc3c(cc12)CCCN3,0.0,17.6,3637,-3.6,2.8,-11.1,2.0
O=C(CN(Cc1ccc(Br)cc1)S(=O)(=O)c1ccccc1)NCc1ccncc1,2.6,-2.6,4619,14.4,-9.5,3.7,6.2
COc1ccc(-n2c(=S)[nH]c3cc(C(=O)Nc4ccccc4OC)ccc3c2=O)cc1,0.0,6.1,.,0.2,.,-9.5,2.6
CC(Sc1nnc(Cc2cccs2)n1C1CCCCC1)C(N)=O (configuration not stated),.,.,2159,-0.9,-10.3,2.4,2.5
CCOc1cc(S(=O)(=O)NCc2ccccc2)ccc1F,.,.,4350,1.5,-16.6,0.5,3.6
CC1(C)CC(=O)N(c2ccccc2)C1(C)O (configuration not stated),1.5,-1.8,?,1.7,-22.8,3.1,1.2
C=CCn1c(SCC(=O)C(C)(C)C)nnc1-c1cccs1,0.3,8.7,23404*,-17.1,-22.1,10.8,9.0
COC(=O)[C@@H]1C[C@@H]2CC[C@@H](O)C[C@@H]2N1Cc1ccc(OC)cc1,.,.,5019,.,-8.3,-13.2,.
COc1ccc(CCNC(=O)COC(=O)c2cnccn2)cc1,5.4,5.2,2861,19.2,-1.8,5.5,25.3
COc1ccc(C2OC(=O)C(C)(C)C(=O)C2(C)C)cc1OC (configuration not stated),8.3,-11.7,3868,8.5,-14.3,-3.1,2.9
CCn1c(=NC(=O)C2COc3ccccc3O2)sc2c(OC)ccc(OC)c21 (configuration not stated),11.3,-2.6,5598,1.9,-35.5,-11.5,-8.9
CCCc1ccc(OCC(O)CN2CCN(c3ccccc3)CC2)cc1 (configuration not stated),6.8,12.6,3995&3982,15.4&7.9,-41.7&-5.2,6.8,11.7&4.5
CCCc1nnc(N2C(=O)c3cccc4cccc(c34)C2=O)s1,.,.,2597,8.7,-3.0,-3.4,-0.3
Cc1cc(NS(=O)(=O)c2ccc(NC(=O)c3ccc(F)cc3)cc2)nc(C)n1,-1.7,-2.1,2709,7.8,-8.0,.,4.3
Cc1csc(SCC(=O)Nc2sc3c(c2C#N)CCC3)n1,9.4,9.0,2402,-19.2,-1.6,-6.8,7.8
CCCCCCCCC(=O)NN=Cc1ccccn1,7.1,1.5,.,-9.4,.,.,6.5
CCOc1ccc(C)cc1S(=O)(=O)Nc1cccnc1,.,.,2396,-6.2,-15.9,-1.1,5.6
Cc1nc2ccccc2c(=O)n1/N=C/C=C/c1ccccc1,.,.,4650,.,-16.1,-10.3,.
CCCCn1c(N)c(N(CCOC)C(=O)CN(C)S(=O)(=O)c2ccc(Cl)cc2)c(=O)[nH]c1=O,8.7,15.3,5511,3.1,-15.2,5.3,4.1
CS(=O)(=O)NCCSCc1ccc(Cl)cc1,10.5,11.0,8874,-11.5,-27.5,-3.4,5.4
CCCC1=NN2C(=N)/C(=C\c3cc(C)n(-c4cc(C)cc(C)c4)c3C)C(=O)N=C2S1,11.7,-8.5,2805,-20.4,-1.9,-1.7,-29.3
Cc1cc(C)c(C#N)c(SCc2nc3ccccc3c(=O)[nH]2)n1,2.4,-5.9,3197,5.8,-39.5,0.5,3.8
c1ccc(CN(Cc2ccco2)C(c2ccncc2)c2nnnn2C2CCCC2)cc1 (configuration not stated),10.4,14.0,5279,5.5,-39.4,-0.7,4.8
CC1=CC(=C(C#N)c2nc3ccccc3s2)C=C(C)N1Cc1ccco1,3.9,8.8,12978,-13.4,-47.7,-0.4,-3.6
CCC1=C(OC(=O)N(CC)CC)N2C(=O)OC(=NCCc3c[nH]c4ccccc34)[C@]2(C)C2C1=CCC1C(=O)NC(=O)C12 (some centres not stated),6.7,0.3,.,1.5,.,.,5.3
CCN(C(=O)c1cc2c(=O)[nH]c3ccc(C)cc3c2s1)c1ccccc1C,17.6,10.2,4512,5.6,-8.8,5.8,4.7
Nc1ccc2c(c1)C(=Cc1cccnc1)c1ccccc1-2,-5.6,0.6,3775,-11.5,-4.6,.,4.5
CN(C(=O)c1ccccc1C(=O)c1ccccc1)C1CCS(=O)(=O)C1 (configuration not stated),13.9,-3.0,11742,8.2,-16.5,5.4,1.7
Cc1cccc(NC(=O)COC(=O)c2cc3ccccc3oc2=O)c1,-6.2,1.5,3286,1.7,-11.4,-3.1,1.8
Cc1ccc(C(C)C)cc1S(=O)(=O)NCc1ccccn1,17.1,12.4,3716,2.4,-25.4,3.2,5.1
CN1CC(=O)N/C1=N\C(=O)Nc1ccc2c(c1)N(C)C(=O)CS2,-2.7,3.3,6939,-3.6,-25.7,-7.7,1.3
N#Cc1ccsc1NC(=O)C1CCCN1S(=O)(=O)c1cccs1 (configuration not stated),4.4,-2.0,?,0.9,-32.9,-9.7,-0.5
CSc1nc(=S)cc(C)[nH]1,-8.7,6.2,4469,10.1,-24.9,-4.8,-2.1
CCC(C)(C)NC(=O)c1ccc(Sc2nncn2C)c([N+](=O)[O-])c1,1.5,-2.6,9524,1.8,-10.7,-5.5,3.8
O=C(COC(=O)c1cc(Br)ccc1O)NCC1CCCO1 (configuration not stated),-6.6,0.0,6144,-0.5,-25.9,-0.1,-2.0
O=C(NCc1cccnc1)/C(=C/c1ccc([N+](=O)[O-])cc1)NC(=O)c1ccccc1,4.0,4.3,3705,4.5,-15.0,.,5.1

# The results go on.
SMILES,Mtb hypoxia inh,Mtb hypoxia inh growth,Autofluor counter,ugtP null kill,PrP 5UTR inh,BJeLR viability,Sa RN4220 lethal
Cc1cccc2c1NC(=O)C21N2CCCC2C(C(=O)c2ccc3ccccc3c2)C12C(=O)Nc1ccccc12 (configuration not stated),9.5,-0.3,.,0.9,.,-11.0,2.2
COc1ccc(CNC(=O)NS(=O)(=O)c2ccc(C)cc2)cc1,19.7,7.7,3573,11.1,-32.4,3.0,7.9
O=C(Cn1c2ccccc2c(=O)c2ccccc21)NN=Cc1cc([N+](=O)[O-])ccc1N1CCCCCC1,-0.8,7.8,.,-18.7,.,.,6.6
COC(=O)c1cc(NC2c3ccccc3C(=O)N2c2ccc(Cl)cn2)cc(C(=O)OC)c1 (configuration not stated),-4.0,16.0,6599,-7.0,-21.5,-0.6,4.2
Cc1ccc(NC(=O)CN2C(=O)NC(C)(c3ccccc3)C2=O)c(C)c1 (configuration not stated),4.3,-3.7,5126,11.3,-9.7,-1.7,7.1
C=CCn1c(C)c(C(C)=O)c(N2CCCC2)nc1=S,.,.,3047,-0.6,8.9,-8.2,-0.9
COc1cccc(C=NNC(=O)c2c(-c3ccccc3)noc2C)c1OC,-1.0,1.0,.,2.4,.,.,3.3
Cc1ccc(C(=O)NCCN(C)C)c(C)c1,10.9,10.5,2816,3.7,-22.0,-13.6,6.6
COC(=O)c1[nH]c(C)c(/C(O)=C2\C(=O)C(=O)N(CCN(C)C)C2c2ccc(C)o2)c1C (configuration not stated),2.2,7.1,3149,-7.9,-16.9,-1.8,-9.0
CC1(C)OC(c2ccccc2)=C/C(=C/C=NNC(=O)c2ccncc2)O1,-4.2,7.2,.,18.4,.,.,6.0
O=C(COc1cccc2cccnc12)Nc1ccccc1N1CCOCC1,-3.5,5.9,3847,1.7,8.1,-2.1,2.5
CC(/C=C/c1ccc2c(c1)OCO2)=N/NC(=O)c1ccc(C)nc1,.,.,2451,.,-1.6,-0.2,.
O=c1cccc2n1CC1CC2CN(Cc2c(Cl)cccc2Cl)C1 (configuration not stated),1.2,2.3,9839,5.6,-21.6,-2.3,8.2
COc1ccc(C(CNC(=O)CNC(=O)c2cccc(Cl)c2)N2CCCC2)cc1 (configuration not stated),4.9,-2.7,3113,1.5,-9.7,.,1.2
CCOC(=O)CCSc1nc(C)cc(C(F)(F)F)c1C#N,-3.5,-4.4,12313,2.6,-52.6,-4.0,2.8
COC1(OC)N=C(NC(=O)Nc2ccccc2)C2(C#N)C(c3ccccc3)C12C#N (configuration not stated),.,.,4394,2.5,10.4,0.7,1.1
Cc1nc([N+](=O)[O-])cn1Cc1cccc2ccccc12,6.0,10.4,4196,7.7,-30.5,5.0,5.3

# Molecules above that have two or more sulfur atoms:
SMILES,Mtb hypoxia inh,Mtb hypoxia inh growth,Autofluor counter,ugtP null kill,PrP 5UTR inh,BJeLR viability,Sa RN4220 lethal
Cc1cccn2cc(CCNS(=O)(=O)c3cccs3)nc12,8.0,-6.4,3439,-5.9,-7.8,-2.6,7.3
CC(C(=O)NC1C(=O)N2C(C(=O)O)=C(CSc3nnnn3C)CSC12)n1cc(Br)cn1 (configuration not stated),.,.,4584,99.8*,-12.5,-9.4,100.2*
CC(Sc1nnc(Cc2cccs2)n1C1CCCCC1)C(N)=O (configuration not stated),.,.,2159,-0.9,-10.3,2.4,2.5
C=CCn1c(SCC(=O)C(C)(C)C)nnc1-c1cccs1,0.3,8.7,23404*,-17.1,-22.1,10.8,9.0
Cc1csc(SCC(=O)Nc2sc3c(c2C#N)CCC3)n1,9.4,9.0,2402,-19.2,-1.6,-6.8,7.8
CS(=O)(=O)NCCSCc1ccc(Cl)cc1,10.5,11.0,8874,-11.5,-27.5,-3.4,5.4
N#Cc1ccsc1NC(=O)C1CCCN1S(=O)(=O)c1cccs1 (configuration not stated),4.4,-2.0,?,0.9,-32.9,-9.7,-0.5
CSc1nc(=S)cc(C)[nH]1,-8.7,6.2,4469,10.1,-24.9,-4.8,-2.1

# Screens (PubChem)
